A1 inh = inhibitors of the anti-apoptotic protein A1, read as caspase activation. MEF A1-2A-BIM cells, Caspase-Glo 3/7 luminescence, 3 h; percent of clofoctol response, vehicle zero. caspase activation, % (no concentration beside the values). 0.066% of 330,000 active. AID 2462;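 active means over half of replicate activation scores above 10%, or exactly half above 10 with the replicate mean above 10; inconclusive means replicate mean below 10 yet half the replicates above 10; inactive means over half of replicates below 10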;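 further: wells of about 30 µL received 50 nL stock; many hits fall short of the cut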
UCH37 inh = inhibitors of human deubiquitinating enzyme UCH37 | Q9Y5K5 | purified proteasome/UCH37, Ub-AMC cleavage fluorescence | inhibition, % (concentration not given with the values) | 0.33% of 330,000 active | AID 588478;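 active means mean of two replicates above 20%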;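 further: 0% = compound-free wells with enzyme and 100% = wells lacking proteasome; stock transfer was 100 nL into about 20 µL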
Target sequence (Q9Y5K5 whole entry, looked up): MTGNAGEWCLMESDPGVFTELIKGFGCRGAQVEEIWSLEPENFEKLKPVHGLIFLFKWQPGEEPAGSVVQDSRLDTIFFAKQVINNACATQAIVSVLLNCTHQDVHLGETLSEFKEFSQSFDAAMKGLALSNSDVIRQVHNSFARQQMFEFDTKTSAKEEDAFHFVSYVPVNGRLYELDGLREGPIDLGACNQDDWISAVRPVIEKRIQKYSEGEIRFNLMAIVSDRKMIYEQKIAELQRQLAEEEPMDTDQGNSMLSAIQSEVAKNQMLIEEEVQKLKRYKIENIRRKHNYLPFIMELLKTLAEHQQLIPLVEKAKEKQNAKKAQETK
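Assay system: Proteasome-bound UCH37. Buffer or medium: pH 7.4 Tris-HCl (50 mM) with ovalbumin, ATP-MgCl2, DTT. Incubation: 30 min preincubation with enzyme, 25 min cleavage at room temperature. Measured by: fluorescence, ex 355 nm, em 460 nm. Read-out basis: percent inhibition. Control set: wells without proteasome as full block, compound-free enzyme plus substrate as uninhibited.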
Ecoli growth = inhibitors of Escherichia coli growth | OD600, 23 h; hits give low values | OD600 absorbance (no concentration beside the values) | 0.21% of 330,000 active | AID 1053175;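 active means OD600 absorbance below the run mean of sample wells minus 3.6 SD, in any replicate, cut at about 0.56 in these data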;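 further: stock transfer was 300 nL into about 60 µL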
Vif TR-FRET = inhibitors of Vif binding to APOBEC3G peptide, primary screen, biochemical, TR-FRET, GST-Vif 1-94, biotin-A3G peptide, dose response retest (AID 1117319). 0.57% of 260,000 active. inhibition, %; hits with a dose series show IC50 in µM. TR-FRET GST-Vif / biotin-A3G peptide binding; higher % means a stronger effect; test concentration not given here; strong numbers were not always called active;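 active means above the screen mean plus three standard deviations and confirmed in dose response; inconclusive means results disagree or hit not tested in dose response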;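 further: Vif residues 1-94 fused to GST binding biotinylated APOBEC3G peptide 110-148; 0% = full assay without inhibitor and 100% = GST in place of GST-Vif; retest series ran down from 100 µM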
LANA-H2B inh = blocks KSHV LANA binding to histone H2A/H2B; 0.6% of 320,000 active; AID 2629; cell-free LANA-H2A/H2B peptide, fluorescence polarization; inhibition, % (no concentration beside the values); Q9QR71; in the data active means inhibition mostly above about 10%, no sharp cut-off; inactive means mostly below about 6.7%;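 further: stock transfer was 7.5 nL into about 10 µL; 0% = median of vehicle wells and 100% = median of positive control wells; one replicate is shown; the record names a cut of 25% in any replicate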
Beta2AR agonist = agonists of human beta-2 adrenergic receptor inducing internalization | Am2.2-beta2AR cells, FAP receptor internalization, flow cytometry; reference of the scale not given here | response, % (no concentration beside the values) | 0.43% of 340,000 active;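 active means response above a set limit, near 3 SD of response in nonfluorescent compounds, cut at about 42% in these data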;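 further: stock transfer was 100 nL into about 11 µL; a reference agonist was the positive control; negative values mostly stem from fluorescent compounds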
HNF4A DNA FP = change in binding of human HNF4 alpha to DNA | P41235 | HNF4a-FITC DNA binding, fluorescence polarization, 1 h | activity change, % at 10 µM | 0.3% of 360,000 active; in the data active means activity change above about 30%, passing the limit was not always enough;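 further: controls were the assay level and a saturating level of protein; the project sought stronger binding though the title names inhibitors; some compounds called inactive have numbers as strong as hits; positive values seem to mean higher polarization but the record does not say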
Target sequence (P41235 whole entry, looked up): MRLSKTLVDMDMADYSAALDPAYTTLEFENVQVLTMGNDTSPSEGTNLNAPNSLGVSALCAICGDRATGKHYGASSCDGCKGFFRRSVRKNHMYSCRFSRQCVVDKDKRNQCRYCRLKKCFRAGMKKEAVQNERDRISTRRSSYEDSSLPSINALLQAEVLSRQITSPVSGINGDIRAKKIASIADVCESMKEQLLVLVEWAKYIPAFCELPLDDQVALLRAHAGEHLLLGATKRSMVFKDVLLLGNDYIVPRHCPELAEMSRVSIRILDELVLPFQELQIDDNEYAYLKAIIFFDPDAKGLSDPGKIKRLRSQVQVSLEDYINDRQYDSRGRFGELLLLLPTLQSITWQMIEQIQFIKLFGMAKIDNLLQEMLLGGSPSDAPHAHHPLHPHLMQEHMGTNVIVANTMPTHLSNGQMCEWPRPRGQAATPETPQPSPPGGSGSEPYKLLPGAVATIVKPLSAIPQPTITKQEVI
* marks the source's active call; other numbers are inactive results; ? = inconclusive; . = no result given. This is a random part of the collection, and some 2.1% of all compounds hit somewhere here.

SMILES	A1 inh	UCH37 inh	Ecoli growth	Vif TR-FRET	LANA-H2B inh	Beta2AR agonist	HNF4A DNA FP
Cc1ccc(NC(=O)CN2C(=O)NC3(CCCC3)C2=O)cc1S(=O)(=O)N1CCCCC1	0.3	1.0	0.679	-10.2%	1.7	0.7	-1.2
CC(=O)Nc1ccc(S(=O)(=O)N(CC(=O)Nc2cc(C)on2)Cc2ccc(F)cc2)cc1	0.1	0.6	0.687	-4.3%	-5.6	2.3	0.3
O=C(CN1C(=O)CCC1=O)NC(=O)NC1CCCC1	1.1	2.8	0.679	0.5%	3.4	-3.6	0.8
CC(OC(=O)c1cccc(S(=O)(=O)N2CCCC2)c1)C(=O)NC1CCCCC1C (stereo not drawn)	-0.1	2.4	0.66	-4.4%	3.3	-3.2	1.4
C=CCNC(=S)N/N=C(\C)c1cccnc1	0.1	.	.	1.3%	-1.8	-3.6	-0.1
Cc1ccc(S(=O)(=O)NCC(=O)OCc2cc(=O)oc3c(C)c(C)ccc23)cc1C	0.4	1.3	0.662	.	0.0	6.3	0.7
Cc1cccc(CCN(C(=O)c2csnn2)C(C(=O)NC2CCCC2)c2ccco2)c1 (stereo not drawn)	-0.4	-0.1	0.606	-11.8%	-0.7	0.6	0.1
CCOC(=O)Nc1nnc(/C=C/c2ccc(OC)cc2)s1	-1.4	-57.9	0.66	.	-12.2	-13.0	6.5
Oc1ccc(-c2n[nH]c(=S)n2Cc2ccco2)cc1	0.2	4.9	0.699	1.1%	1.4	15.4	1.6
CCOC(=O)c1c(C)oc2c1c1c(c3ccccc32)OCN(Cc2cccnc2)C1	.	4.8	0.686	8.1%	.	1.1	-7.0
Cc1ccccc1NCCC(=O)Nc1ccc(Cl)cc1	0.0	4.7	0.622	.	1.7	-21.4	0.2
COc1cc(NC(=O)CCC(=O)OCCCC(F)(F)C(F)(F)F)nc(OC)n1	-0.4	4.4	0.636	12.2%	-8.5	-5.2	1.7
Cc1cc2occ(CC(=O)N(C)CC(=O)Nc3ccccc3Br)c2cc1C	0.3	1.8	0.701	-9.4%	1.2	-4.6	1.1
Cc1cc(NS(=O)(=O)c2c(C)c(C)cc(C)c2C)no1	-0.1	4.5	0.709	.	-2.4	3.6	2.1
O=C(c1ccc(-n2cncn2)c([N+](=O)[O-])c1)N1CCN(S(=O)(=O)c2ccc(Br)cc2)CC1	-1.2	0.2	0.701	-3.1%	-0.2	1.4	-0.9
Cc1cccc(C)c1NC(=O)C(C)N (stereo not drawn)	0.1	2.3	.	.	-0.7	.	.
Cn1c(-c2cnn(-c3ccccc3)c2-n2cccc2)n[nH]c1=S	1.4	1.2	0.691	-6.4%	1.2	-1.7	5.3
NC(=S)N1CCCc2ccccc21	0.6	0.8	0.642	20.8%	-0.2	1.5	4.7
CN(Cc1ccccc1)C(=O)c1[nH]cnc1C(=O)Nc1ccc(Cl)cc1	-1.5	3.7	0.691	.	-2.0	1.5	2.2
CCNC(=O)c1ccccc1SCC(=O)Nc1ccc(F)cc1	1.2	-1.0	0.664	6.0%	4.0	-4.4	-1.4
CC(C)Cc1cc(C(=O)Nc2ccccc2)c2ccccc2n1	-0.1	3.7	0.622	-0.9%	0.5	-4.2	-1.5
CCc1nc(SCC(=O)NC2CC2)c2c(C)c(C)sc2n1	-0.5	5.6	0.644	.	4.1	-11.4	1.6
CC(OC(=O)c1ccccc1)C(=O)NCc1ccco1 (stereo not drawn)	-0.2	1.0	0.646	.	5.1	2.0	-4.3
CSCCC(NC(=O)c1cccc([N+](=O)[O-])c1)c1nc2ccccc2[nH]1 (stereo not drawn)	-0.4	0.8	0.672	.	-0.5	-3.3	-1.4
CCCCN(CC)CCCNC(=O)c1cn(C)c2ccc(S(=O)(=O)N(C)C3CCCCC3)cc2c1=O	-1.0	2.5	0.727	.	0.4	16.4	1.9
O=C(CCNS(=O)(=O)c1ccccc1)N1CCC(Cc2ccccc2)CC1	1.6	-1.6	0.708	-0.8%	-0.3	0.1	-3.6
O=S(=O)(Cc1ccccc1)Nc1cccc(Br)c1	0.4	-1.1	0.649	9.6%	-2.0	-3.7	3.7
CC(=C1C(=O)c2ccccc2C1=O)N1CCN(Cc2ccccc2)CC1	0.1	4.0	0.665	31.5%	3.6	-2.4	-0.3
CN(C(=O)COC(=O)CSc1ccc(C(N)=O)cc1[N+](=O)[O-])C1CCCCC1	0.1	3.2	0.667	1.9%	-1.6	7.2	0.8
COc1ccc(-n2nnnc2SCC(=O)NCc2cccs2)cc1	0.6	0.1	0.697	-2.1%	0.1	-5.8	4.7
CC(=O)c1oc2ccccc2c1NC(=O)CN1CCCCC1	-0.3	5.4	0.638	-2.6%	0.0	1.5	-1.1
COC(=O)c1c(NC(=O)CN2C(=O)NC3(CCC(C)CC3)C2=O)sc2c1CCC2 (stereo not drawn)	-1.2	-8.5	0.649	-13.2%	-2.4	6.2	-5.1
COc1ccccc1-n1c(SCC(=O)N(C)C)nnc1-c1ccco1	.	.	.	-7.6%	.	6.8	-1.1
COc1cc(C(C)=O)ccc1OCC(O)CN1CCN(c2ccccn2)CC1 (stereo not drawn)	1.1	.	.	-9.7%	-3.3	-1.3	-2.8
OC(CCc1ccncc1)COc1ccccc1 (stereo not drawn)	-1.0	0.7	0.702	.	3.4	-2.0	3.9
COc1ccccc1OCCNC(=O)Cc1ccc(Cl)c(Cl)c1	-0.6	0.8	0.681	1.2%	-0.3	5.9	-1.1
CCOc1ccc(NC(=O)CN2C(=O)CSC(C)C2=O)cc1 (stereo not drawn)	1.4	5.9	0.699	-1.9%	-0.9	7.0	-1.8
COc1cc(C(=O)N/N=C/c2ccccn2)cc(OC)c1OC	0.2	.	.	1.9%	3.6	-5.8	1.9
CCCc1noc2c1/C(=N\O)CC(c1ccccc1)C2 (stereo not drawn)	0.6	.	.	2.5%	4.1	-2.8	-1.8
CC12CCC(C(=O)N/N=C/c3ccc(O)cc3)(OC1=O)C2(C)C (stereo not drawn)	-0.5	.	.	-3.0%	9.0	3.9	-2.2
Nc1ncnc2nc(SCc3ccccc3)[nH]c12	0.2	1.7	0.682	4.0%	-3.0	1.2	0.0
O=C(CSc1nnc(Nc2ccccc2)s1)NC1CCS(=O)(=O)C1 (stereo not drawn)	0.0	2.5	0.704	-5.4%	-1.5	-5.9	-2.4
CC(=O)c1ccc(NS(=O)(=O)c2ccc3c(c2)N(C(C)=O)CCO3)cc1	0.4	2.2	0.718	.	-1.8	0.9	-3.5
CN(CC(=O)Nc1ccc2c(c1)OCO2)S(=O)(=O)c1cccs1	-0.6	4.3	0.692	.	-2.4	-5.8	0.4
O=C(c1ccccc1)N1CCCc2ccccc21	-1.3	1.4	0.668	16.3%	0.9	-2.9	-1.1
CCOc1cc(C(=S)N2CCCC2)ccc1OCc1ccccc1	-0.4	1.2	0.611	9.4%	9.2*	-0.6	-1.9
O=C1c2ccccc2C(=O)N1OCc1ccccc1	-1.2	0.2	0.631	6.5%	-0.7	-3.2	1.3
CC(=O)Oc1c(S(=O)(=O)c2ccc(C)cc2)c(C)nn1-c1ccccc1	-0.6	0.6	0.733	1.9%	2.3	7.5	-1.8
CON/C=C(\C=Nc1ccc(F)cc1)c1ncc(C(F)(F)F)cc1Cl	0.9	6.4	0.7	-0.7%	-0.7	-8.9	-0.3
CCC(C)C(NC(N)=O)C(=O)Nc1ccc(C)c(Cl)c1 (stereo not drawn)	0.5	4.4	0.747	-2.8%	2.3	0.9	3.7
CC1=NOC(=O)/C1=C/c1ccc(O)cc1	0.1	0.8	0.666	?	-0.8	11.8	1.7
CCOc1cccc(C(=O)Nc2nnc(-c3cccs3)s2)c1	0.1	-103.7	0.842	-1.6%	-3.2	2.2	0.8
CNC1=CC(=O)CC(c2ccccc2)C1 (stereo not drawn)	0.1	-0.6	0.596	-2.6%	-1.7	18.6	3.4
O=C(COC(=O)c1cccs1)Nc1cccc(S(=O)(=O)N2CCCCC2)c1	-0.7	1.3	0.685	-2.2%	1.5	13.5	4.0
O=C(Nc1ccc(F)cc1F)c1ccc(-n2cccn2)nc1	-2.0	6.0	0.726	-3.7%	-2.8	-6.4	0.0
O=c1oc2ccccc2c(N2CCCCC2)c1CN1CCCCC1	0.4	6.1	0.79	11.5%	-1.7	-5.6	2.2
CC(C)CN(C(=O)COC(=O)Cc1cccc2ccccc12)c1c(N)n(Cc2ccccc2)c(=O)[nH]c1=O	-0.2	0.8	0.726	-2.0%	-3.6	3.2	-0.7
COc1ccc(C(=O)N/C(=C\c2cn(C)c3ccccc23)C(=O)N2CCN(C)CC2)cc1	-0.3	12.3	0.689	.	0.7	-4.2	2.2
COc1ccc(OC)c(Nc2nc(N)nc(CSc3nnc(N)s3)n2)c1	-1.6	3.2	0.751	4.7%	0.7	-5.7	-3.1
Cc1ccc(S(=O)(=O)N2CCOCC2)cc1NC(=O)c1cccc(S(=O)(=O)N2CCCC2)c1	-0.1	0.8	0.7	-2.0%	-4.3	6.8	2.5

New compounds follow:
SMILES	A1 inh	UCH37 inh	Ecoli growth	Vif TR-FRET	LANA-H2B inh	Beta2AR agonist	HNF4A DNA FP
COC(=O)/C(C#N)=C/c1ccc(OC(=O)c2ccccn2)cc1	-3.1	10.7	0.692	-2.1%	0.1	2.2	44.7*
CCn1cc(CN2CCc3c([nH]c4ccccc34)C2c2cccc(O)c2)c(C)n1 (stereo not drawn)	0.0	-17.4	0.638	-0.2%	-1.9	-9.1	-3.2
COc1ccc(C2=NOC(Cn3nc(C(=O)O)cc3-c3ccccc3)C2)cc1 (stereo not drawn)	1.4	6.6	0.662	.	-5.0	0.1	4.2
CC(C)c1cccc(C(C)C)c1NC(=O)COC(=O)C1CCC1	-0.4	5.5	0.694	0.4%	-0.4	-5.3	-3.0
Cc1ccc(/C=C(\C#N)C(=O)NC(C)c2ccccc2)o1 (stereo not drawn)	0.4	6.7	0.703	.	0.5	8.8	0.2
COc1ccc(OC)c(NC(=O)[C@@H]2CCCN2C(=O)c2cccs2)c1	0.5	-0.5	0.691	6.6%	-0.1	-0.1	-3.1
CN(CC(=O)N1CCN(c2ccccc2)CC1)S(=O)(=O)c1cccs1	-0.4	0.6	0.674	?	-9.2	4.0	-0.6
O=C(Nc1ccccc1C(F)(F)F)c1ccccn1	0.0	0.9	0.721	-11.2%	3.3	-6.4	1.9
O=C(Cc1ccccc1F)NCC1(N2CCOCC2)CCCCC1	0.7	0.3	0.668	6.8%	3.7	-4.1	-0.6
CCCCc1nnc(NC(=O)Cc2ccc(S(=O)(=O)N3CCOCC3)s2)s1	0.1	1.8	0.674	-4.5%	.	8.2	17.3
O=C(NCc1ccc(F)cc1)C(=O)Nc1nc(C23CC4CC(CC(C4)C2)C3)cs1	0.6	-1.5	0.699	16.9%	2.4	-4.1	3.5
CCOC(=O)C1NN=C(C(=O)c2ccccc2)C1c1ccc(OC)cc1 (stereo not drawn)	-0.5	3.8	0.683	-3.3%	-1.5	-7.0	5.7
Cc1ccccc1C(=O)OCc1cnc(Cl)s1	-0.7	0.4	0.628	.	-2.7	-7.2	5.2
COc1ccc(-n2c(Cc3cccn3C)nnc2SCC(=O)NCc2ccco2)cc1	-1.1	-0.6	0.719	19.0%	-1.5	1.2	-1.1
CCOC(=O)C(C)NC(=O)CCc1nnc2ccc(N3CCC(C)CC3)nn12 (stereo not drawn)	-0.1	4.1	0.689	-1.8%	-4.9	-4.1	-3.9
